Screening results as filed in PubChem.
Mtb H37Rv: Confirmatory growth inhibition assay against Mycobacterium tuberculosis H37Rv, potency (AID 1949) | one-dose inhibition, % at 10 µg/mL; IC50 in µg/mL for titrated hits | hit rate 1.6% among 100,000 | most inactive calls were filed without a number and no value below 0 was filed;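 active = confirmed in a dose series; inconclusive = about 50% or more but not retested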;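 also: bacteria grown 7 days with compound before Alamar blue readout; 0% = untreated bacteria and 100% = reference antibiotic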
Numbers without * were called inactive; i = inactive; ? = inconclusive. These rows are one share of the data; count on the stated rates, not on these rows.

SMILES	Mtb H37Rv
CCc1ccccc1NC(=O)COc1ccc(Br)cc1C	i
Cc1ccc(S(=O)(=O)CCc2nc3ccccc3n2CC(=O)O)cc1	i
COc1ccc(CNC(=O)C2CCN(C(=O)c3ccc(Cl)cc3Cl)CC2)cc1	i
O=C(CSc1ccc(Cl)cc1)Nc1ccc(Br)cn1	3µg/mL*
COc1cccc(-c2nc(SCC(=O)Nc3ccc([N+](=O)[O-])cc3)[nH]c(=O)c2C#N)c1	i
Cc1csc(NC(=O)C2c3ccccc3Oc3ccccc32)n1	7%
COc1cccc(NC(=O)C2CC=CCC2C(=O)O)c1 (stereo not given)	i
Cc1ccc(CNC(=O)c2ccccc2C(=O)NCc2ccc(C)cc2)cc1	i
CCSc1ccccc1C(=O)N1CCN(Cc2ccccc2)CC1	i
Cc1cccc(CN2CCN(Cc3ccccc3F)CC2)c1	1%
Cc1ccc(S(=O)(=O)c2nc(S(C)(=O)=O)sc2N2CC(C)OC(C)C2)cc1 (stereo not given)	i
Cc1cccc(OCC(=O)Nc2ccc(S(=O)(=O)Nc3ccc(S(N)(=O)=O)cc3)cc2)c1	5%
CN(C)S(=O)(=O)c1ccc(-c2csc(-c3cccnc3)n2)cc1	i
COc1cc(/C=C/c2nc(=O)c3ccccc3o2)ccc1O	7%
Cc1ccc(OCC(=O)Nc2cccc(-c3nc4ccccc4c(=O)o3)c2)cc1	37%
CCOC(=O)c1ccc(NC(=O)CCn2cnc3ccccc3c2=O)cc1	i
CCOCC(=O)N1CCC(Cc2ccccc2)CC1	0%
Cc1cccc(-c2nc(C#N)c(N3CCN(c4ccccc4)CC3)o2)c1	i
C=CCNCc1ccc(-c2ccccc2F)o1	1%
N#CC1=C(N)C(C#N)(C#N)C(c2ccc(F)cc2)C=C1c1ccccc1 (stereo not given)	i
O=C(CCCC(=O)NCc1ccco1)NCc1ccco1	i
CC(=O)Nc1cccc(NC(=O)c2ccc(COc3cccc(C)c3)cc2)c1	0%
CCOC(=O)N1CCN(S(=O)(=O)c2ccc(OC)c(Cl)c2Cl)CC1	2%
O=C(COc1ccc(S(=O)(=O)NC2CCCC2)cc1)NCCc1ccccc1	10%
O=C(Nc1cccc2ccccc12)N1CCN(c2ccccc2)CC1	5%
CCOC(=O)c1sc(NC(=O)CSc2nc3ccccc3s2)c(C#N)c1C	i
COc1ccccc1CNC(=O)CCSc1ccc(Cl)cc1	i
O=C(COc1ccc(S(=O)(=O)NCc2ccccc2)cc1)N1CCCCCC1	i
CC(CC#CCN1CCCC1)OCCC#N (stereo not given)	i
O=C1N/C(=N/N=C/c2ccccc2)SC1Cc1ccc(Br)cc1 (stereo not given)	i
O=C(CN(Cc1ccc(Cl)cc1)S(=O)(=O)c1ccccc1)NC1CCCC1	i
O=C(Nc1ccc(F)c(Cl)c1)C1CCN(C(=O)c2ccc(Cl)cc2)CC1	4%
CCC(C)c1ccc(OCC(=O)NNC(=O)c2ccc(F)cc2)cc1 (stereo not given)	i
COc1ccccc1NC(=O)CN(c1cccc(F)c1)S(C)(=O)=O	i
CCC(=O)Nc1ccccc1Oc1c(F)c(F)c(Oc2ccccc2NC(=O)CC)c(F)c1F	i
CCCCNC(=O)c1ccc(N(Cc2ccc(Cl)cc2)S(C)(=O)=O)cc1	i
Cc1ccc(-c2nc3cc(Cl)ccc3o2)cc1[N+](=O)[O-]	i
Cc1cc(Cl)ccc1NC(=O)CN(C)S(=O)(=O)c1ccc(F)cc1	i
COc1ccc(CNc2oc(C)nc2C#N)cc1	i
O=C(CSc1nnc(-c2ccco2)n1-c1ccccc1)NCC1CCCO1 (stereo not given)	i
C=CCSc1nc2ccc(OCC)cc2[nH]1	2%
CC1=C(C(=O)Nc2ccccc2)C(c2cccnc2)n2ncnc2N1 (stereo not given)	i
Clc1ccc(OCCOCCN2CCCC2)c(Br)c1	6%
COc1cccc(C2=CC(c3c(F)cccc3Cl)n3nnnc3N2)c1 (stereo not given)	7.6µg/mL*
CC(C)Cc1csc(NC(=O)C(C)C)c1C(=O)O	i
COCCNCCCCOc1ccc(Cl)cc1C(C)(C)C	4.6µg/mL*
CCCS(=O)(=O)N1CCN(c2cccc(Cl)c2)CC1	i
C=CCNC(=O)C(C)Sc1ccc(C)cc1 (stereo not given)	i
Cc1c(Cl)cccc1NC(=S)NC(C)C1CCCO1 (stereo not given)	i
COc1ccc(Cl)cc1S(=O)(=O)Nc1cccc2ccccc12	i

The results go on.
SMILES	Mtb H37Rv
CCc1sc(C(=O)Nn2cnnc2)cc1Br	i
CC1=CC(C)(C)N2C(=O)C(=O)c3cc(OC(=O)COc4ccccc4)cc1c32	4%
Cc1ccc(-n2c(SCC(=O)Nc3ccccc3)nc(O)c(Cc3ccccc3)c2=O)cc1	i
O=C(NC(=S)Nn1c(-c2ccccc2)nc2ccccc2c1=O)c1ccccc1Cl	i
CCCC(CCC)n1[nH]c(=O)c2c(C)cc(=O)[nH]c21	i
O=C(NC(=S)Nc1cccc2ncccc12)c1ccc2c(c1)OCCO2	i
Cc1ccc(NC(=O)Cc2n[nH]c(=S)n2C)cc1	3%
Cc1ccccc1NC(=O)C(C)(c1ccccc1)c1ccccc1	1%
Cc1c(NC(=O)COc2ccc(Cl)cc2Cl)cccc1[N+](=O)[O-]	0%
Cc1cc(C)c(OCC(=O)Nc2ccc(F)cc2)c(C)c1	i
CCN1CCN(C(=O)c2ccccc2NC(=O)C(c2ccccc2)c2ccccc2)CC1	i
CCN(CC)C(=O)c1sc(NC(=S)NCCCN2CCCC2=O)c(C(=O)OC)c1C	i
O=C(CNC(=O)c1cccs1)NC1=NCCS1	i
Nc1cc(=O)[nH]c(=O)n1Cc1ccco1	i
COc1ccc(CNC(=S)Nc2ccc(Oc3ccccc3)cc2)cc1	i
O=c1[nH]c(N2CCCCCC2)nc2ncn(Cc3ccccc3)c12	i
NS(=O)(=O)c1ccc(NCc2c(F)cccc2Cl)cc1	i
Cc1nnc(-c2ccc(NCC3CCCO3)c([N+](=O)[O-])c2)o1 (stereo not given)	i
CC(C)c1ccccc1NC(=O)c1ccccc1C(=O)Nc1ccccc1C(C)C	i
O=c1c2ccccc2nc(SCc2cccc3nsnc23)n1-c1ccccc1	i
COC(=O)C1=CN(C)C=C(C(=O)OC)C1c1cccc(Oc2ccccc2)c1	i
CC(C)NC(=O)c1ccccc1NS(=O)(=O)c1ccc(F)cc1	i
Cc1ccc(C(=O)N2CCC(C)CC2)cc1Br	2%
Clc1ccc(-c2noc(-c3ccc(Cl)c(Cl)c3)n2)cc1	i
CC(=O)c1c(C)n(C)c2ccc(OC(=O)c3ccc([N+](=O)[O-])cc3)cc12	?
CC(Oc1ccc(C(=O)NC2CCCCC2)cc1)C(=O)Nc1ccccc1C(F)(F)F (stereo not given)	i
Cc1ccc2nc(-c3cccnc3)cc(C(=O)Nc3ccc4c(C)cc(=O)oc4c3)c2c1	i
Cc1cc2sc(NC(=S)NC(=O)c3ccc(-c4cccc([N+](=O)[O-])c4)o3)nc2cc1Cl	i
Cc1ccn(C(=O)c2ccc(NC(=O)CC(C)C)cc2)n1	i
C=CCn1c(SCC(=O)N2CCCC2)nnc1-c1ccccc1O	i
COc1ccc(-c2c(C)nn3c(N)c(C#N)cnc23)cc1	0%
COc1cc(C2C3=C(COC3=O)Nc3ccc4ccccc4c32)ccc1O (stereo not given)	0%
O=C(CSc1nc2ccccc2o1)Nc1ccc(N2CCOCC2)c(Cl)c1	i
Cc1c(NS(=O)(=O)c2ccc(C(C)(C)C)cc2)c(=O)n(-c2ccccc2)n1C	i
COc1ccc(CNc2ccc(Br)c(C)c2)cc1OC	i
C=CCn1c(SCC(=O)Nc2cc(C)cc(C)c2)nnc1-c1ccc(C)cc1	i
COC(=O)c1c(NC(=O)COc2ccc(C)cc2Br)sc2c1C(C(=O)OC)CC2 (stereo not given)	i
COc1ccccc1C(=O)Nc1ccc2oc(-c3cc(F)c(F)cc3Cl)nc2c1	i
CCCS(=O)(=O)c1ccc(COc2ccc(C3CCCCC3)cc2)cc1	6%
COC(=O)c1ccccc1NC(=O)c1cccc(NC(C)=O)c1C	i

Compounds from the list above with an aryl thioether with sulfur outside any ring:
SMILES	Mtb H37Rv
O=C(CSc1ccc(Cl)cc1)Nc1ccc(Br)cn1	3µg/mL*
COc1cccc(-c2nc(SCC(=O)Nc3ccc([N+](=O)[O-])cc3)[nH]c(=O)c2C#N)c1	i
CCSc1ccccc1C(=O)N1CCN(Cc2ccccc2)CC1	i
CCOC(=O)c1sc(NC(=O)CSc2nc3ccccc3s2)c(C#N)c1C	i
COc1ccccc1CNC(=O)CCSc1ccc(Cl)cc1	i
O=C(CSc1nnc(-c2ccco2)n1-c1ccccc1)NCC1CCCO1 (stereo not given)	i
C=CCSc1nc2ccc(OCC)cc2[nH]1	2%
C=CCNC(=O)C(C)Sc1ccc(C)cc1 (stereo not given)	i
Cc1ccc(-n2c(SCC(=O)Nc3ccccc3)nc(O)c(Cc3ccccc3)c2=O)cc1	i
O=c1c2ccccc2nc(SCc2cccc3nsnc23)n1-c1ccccc1	i
C=CCn1c(SCC(=O)N2CCCC2)nnc1-c1ccccc1O	i
O=C(CSc1nc2ccccc2o1)Nc1ccc(N2CCOCC2)c(Cl)c1	i
C=CCn1c(SCC(=O)Nc2cc(C)cc(C)c2)nnc1-c1ccc(C)cc1	i

(further entries)
SMILES	Mtb H37Rv
COc1cc2ccccc2cc1C(=O)Nc1ccc(N2CCCC2)c(Cl)c1	9%
CCCc1n[nH]c2c1C(=O)CC(C)(C)C2	3%
CC(Sc1nnc(Cc2ccccc2)n1Cc1ccccc1)C(=O)Nc1nccs1 (stereo not given)	i
CN1CCN(c2ccc(NC(=O)CC34CC5CC(CC(C5)C3)C4)cc2)CC1	15%
C=CCn1c(CCSCc2ccccc2)n[nH]c1=S	i
Clc1cccc(CN2CCN(Cc3cccnc3)CC2)c1	2%
Cc1nc(SCC(=O)Nc2c(C)cccc2C)n[nH]1	i
CSc1ccccc1C(=O)NCCOc1cccc(C)c1	i
Cc1cc(C)cc(C(=O)Nc2ccc3oc(-c4ccncc4)nc3c2)c1	i
O=C1N(Cc2cccs2)c2ccccc2C1(O)c1c[nH]c2ccccc12 (stereo not given)	1%
CN1CCN(NC(=S)Nc2ccc(Nc3ccccc3)cc2)CC1	i
COC(=O)c1c(N)n(Cc2ccc(F)cc2)c2nc3ccccc3nc12	i
CC(C)(Oc1ccc(Cl)cc1)C(=O)N1CCN(c2ccccn2)CC1	i
CCOC(=O)c1c(NC(=O)C2CCCCC2C(=O)O)sc2c1CCC2 (stereo not given)	1%
COc1ccc(Cc2n[nH]c(=S)n2Cc2ccccc2)cc1Cl	i
CC(=O)N1N=C(c2ccco2)CC1c1cccs1 (stereo not given)	i
O=C(Nc1ccc(NC(=O)c2cccc(Cl)c2)cc1)c1cccc(F)c1	8%
CN(Cc1ccccc1)S(=O)(=O)c1ccc(OCC(=O)N2CCCCCC2)cc1	4%
CCC(=O)NC(=S)Nc1cccc(-c2nc3ncccc3o2)c1	i
OC(COC1CCCCC1)CN1CCN(c2ccccc2)CC1 (stereo not given)	8%

Structural class, the compounds so far containing a COOH group.
SMILES	Mtb H37Rv
Cc1ccc(S(=O)(=O)CCc2nc3ccccc3n2CC(=O)O)cc1	i
COc1cccc(NC(=O)C2CC=CCC2C(=O)O)c1 (stereo not given)	i
CC(C)Cc1csc(NC(=O)C(C)C)c1C(=O)O	i
CCOC(=O)c1c(NC(=O)C2CCCCC2C(=O)O)sc2c1CCC2 (stereo not given)	1%

The list continues.
SMILES	Mtb H37Rv
CN(c1cccc(NC(=O)CN(c2ccc(Cl)c(Cl)c2)S(=O)(=O)c2ccccc2)c1)S(C)(=O)=O	i
Cc1c(C=O)c(C=O)c(C)n1-c1cccc(SC(F)F)c1	i
O=C(Nc1ccccc1)c1ccc2nc(-c3cccs3)c(-c3cccs3)nc2c1	4%
COc1ccc(CCNC(=O)C(C)C)cc1OC	i
COc1cc(C2NC(=S)NC(c3ccccc3)=C2C(C)=O)cc(Br)c1OC(C)C (stereo not given)	3%
O=C(Nc1ccc(N2CCCCC2)c(Cl)c1)c1cc(Br)ccc1Cl	26%
CCc1nc2sc3c(c2c2nnc(Cc4ccccc4)n12)CC(C)(C)OC3	i
COc1ccc(NC(=O)C(C)c2ccccc2)cc1Cl (stereo not given)	i
COc1cc(C)c(NC(=O)COc2ccc3c(c2)OCO3)cc1C	i
Cc1cccc(-n2c(C)nnc2SCc2ccccc2F)c1	i
CCc1cc(C(=O)OC)c(NC(=O)CC2Sc3ccc(C(F)(F)F)cc3NC2=O)s1 (stereo not given)	i
COc1ccccc1C(CCNCc1ccc(OC(C)C)cc1)c1ccc2c(c1)OCO2 (stereo not given)	?
Cn1c(CC(=O)Nc2ccc(Cl)c(Cl)c2)nnc1SCC(=O)N1CCN(c2ccccc2)CC1	i
FC(F)(F)c1ccccc1Nc1nc(-c2ccccn2)cs1	<0.1µg/mL*
CS(=O)(=O)N1CCN(c2ccccc2F)CC1	i
CS(=O)(=O)N1CCN(C(=S)Nc2ccc(S(N)(=O)=O)cc2)CC1	i
O=C(c1c[nH]c2ccccc12)C(O)C(c1ccccc1)N1CCOCC1 (stereo not given)	i
O=[N+]([O-])c1cccc(NC(=S)Nc2ccc(CN3CCCCC3)cc2)c1	1%
CC1(C)C(=O)C2(C(=O)N(Cc3ccccc3)Cc3ccccc3)CCC1C2 (stereo not given)	i
Cc1ccc(NCC(O)Cn2c(C)c(C)c3ccccc32)cc1C (stereo not given)	?

In the list so far, these contain a tert-butyl group:
SMILES	Mtb H37Rv
COCCNCCCCOc1ccc(Cl)cc1C(C)(C)C	4.6µg/mL*
Cc1c(NS(=O)(=O)c2ccc(C(C)(C)C)cc2)c(=O)n(-c2ccccc2)n1C	i

(cont.)
SMILES	Mtb H37Rv
COC(C(=O)Nc1ccc(C(F)(F)F)cc1)c1ccccc1 (stereo not given)	i
N#Cc1ccc2ccn(CC(=O)NCc3ccccc3)c2c1	i
CCS(=O)(=O)Nc1cc(C(=O)OC)ccc1C(=O)OC	i
Cc1occc1C(=O)NCc1ccccc1F	1%
CCn1c(SCC(=O)Nc2ccc(C(C)=O)cc2)nc2nc3c(cc2c1=O)CCCC3	2%
O=S(=O)(NCc1ccccc1Cl)c1ccc2c(c1)OCCO2	3%
CSc1ccc(S(=O)(=O)Nc2cccnc2)cc1	i
CC1Oc2ccccc2OC1C(=O)N(c1ccccc1)c1ccccc1 (stereo not given)	i
